Screening results (PubChem)
D2 PAM: potentiates the human D2 dopamine receptor allosterically; potentiation, % (test concentration not listed); P14416; AID 624464; 0.23% of 360,000 active; DiscoveRx D2 beta-arrestin cells, luminescence, 90 min; 100% = 57 uM dopamine signal; active = potentiation of 50% or more; inconclusive = 30% to 50%; inactive = 30% or less;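 further: compound concentration not given in the record; tested on top of an EC20 dose of dopamine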
Target sequence (P14416 whole entry, looked up): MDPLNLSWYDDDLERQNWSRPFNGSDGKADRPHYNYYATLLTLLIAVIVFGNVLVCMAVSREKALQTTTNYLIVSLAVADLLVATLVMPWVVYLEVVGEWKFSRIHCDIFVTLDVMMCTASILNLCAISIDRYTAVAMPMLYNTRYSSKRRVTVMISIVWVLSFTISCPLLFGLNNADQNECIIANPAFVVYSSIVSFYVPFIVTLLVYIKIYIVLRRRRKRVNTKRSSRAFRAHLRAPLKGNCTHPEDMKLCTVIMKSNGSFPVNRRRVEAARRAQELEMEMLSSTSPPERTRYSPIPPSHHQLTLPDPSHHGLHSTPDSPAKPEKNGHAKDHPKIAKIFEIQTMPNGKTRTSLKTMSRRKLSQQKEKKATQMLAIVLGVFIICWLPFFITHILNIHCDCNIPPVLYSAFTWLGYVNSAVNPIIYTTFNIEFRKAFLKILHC
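PathHunter D2 cells, attached overnight at 37 deg C, received compound in DMSO plus dopamine at EC20 (50 nM final) for 90 min at 37 deg C. Beta-arrestin recruitment was read as luminescence after 1 h with detection reagent at ambient temperature.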
D2 ag: activates the human D2 dopamine receptor | DiscoveRx PathHunter D2 beta-arrestin, luminescence, 90 min; 100% = 57 uM dopamine signal | activation, % (concentration not given with the values) | 0.084% of 360,000 active | AID 624465; in the data active = activation above about 40%; inconclusive = about 15% to 40%; inactive = below about 15%; further: compound concentration not given in the record; the text of the record calls up to 30% inactive
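DiscoveRx PathHunter D2 beta-arrestin cells (2,100/well) attached overnight, then compound-stimulated 90 min at 37 C in HBSS/10 mM HEPES/0.1% Tween-20 buffer; beta-galactosidase complementation read by luminescence after 1 h at ambient temperature. Dopamine 57 uM final (EC100) as control.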
gsp antagonist: antagonists of gsp mutant (McCune-Albright syndrome) | gsp-mutant cells, cAMP HTRF, 30 min; control for the full effect not named in the record | 0.4% of 340,000 active | AID 624288 | Potency, µM (top dose mostly 76.9 µM), for inactives: at the top dose activity change, negative = inhibition, usual class: inhibitors; active = falling curve of any shape with a large fitted effect; inconclusive = falling curve, mostly with a smaller effect; inactive = flat or rising curve; cell line not stated here;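 further: intracellular cAMP measured with PDE inhibitor Ro 20-1724 present during compound exposure; potency means the concentration at half of the fitted maximal effect; on the % scale 0 is the no-effect control and ±100 the full control effect; nearly all actives have a fitted effect of over 65% in size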
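Measurement of cellular cAMP by homogeneous time-resolved fluorescence following a 30 min compound exposure at 37C. The PDE inhibitor […] was present throughout; the assay buffer was DPBS with 0.05% BSA and 0.005% Tween 20.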
gsp agonist: activates gsp, the McCune-Albright syndrome mutation; gsp mutant cells, cAMP HTRF, 30 min; control for the full effect not named in the record; 0.13% of 340,000 active; AID 624287; Potency, µM (highest dose often 76.9 µM), inactives show at the top dose activation (cAMP increase), most hits filed as activators; active = well fitted activation curve with a large enough effect; inconclusive = small, poorly fitted or top-dose-only effect, or another doubt; inactive = no such curve, though single readings can be large or run the other way; cell line not stated here;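 further: phosphodiesterase inhibitor Ro 20-1724 added with compounds to block cAMP breakdown; potency means the concentration at half of the fitted maximal effect; nearly all actives have a fitted effect of over 60% in size; about a fifth of the inactives were tested at one dose only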
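Cells stably selected in G418 were plated at 2000/well, grown 16-24 hr, then given compounds in DMSO with the PDE inhibitor […] (300 uM solution added) for 30 min at 37C; cAMP was read by HTRF.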
Six1-Eya2 inh: Six1/Eya2 interaction inhibition | AlphaScreen GST-Six1/His-Eya2 binding, biochemical; stronger effect = lower value; control for the full effect not named in the record | activity change, % (test concentration not listed) | 0.56% of 360,000 active | AID 651725; in the data active = activity change below about -65%; inconclusive = about -30% to -65%; inactive = above about -30%; further: on the % scale 0 is the no-effect control and ±100 the full control effect; compound concentration not given in the record
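AlphaScreen with GST-Six1 and His-Eya2 (5X mix: 250 nM and 500 nM), glutathione donor and nickel acceptor beads; buffer 50 mM Tris pH 8.0, 300 mM NaCl, 1 mM TCEP; 1 h at 37 C in the dark.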
CtBP-E1A inh: inhibitors of CtBP/E1A interaction | 0.49% of 340,000 active | activity change, % (no concentration beside the values) | AID 651724 | AlphaScreen GST-E1A/His-CtBP binding, 1536-well; stronger effect = lower value; control for the full effect not named in the record; in the data active means activity change below about -65%; inconclusive means about -30% to -65%; inactive means above about -30%; further: on the % scale 0 is the no-effect control and ±100 the full control effect; compound concentration not given in the record
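GST-E1A and His-tagged CtBP (125 nM each as 5X stock) were preincubated with pin-transferred compound for 2 h at 37 °C in the dark, then glutathione donor and nickel acceptor beads were added for 1 h before AlphaScreen reading.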
* marks the source's active call; other numbers are inactive results; u = inconclusive; x = no result given; [ ] = remark or other dose.

entry	canonical_smiles	D2 PAM	D2 ag	gsp antagonist	gsp agonist	Six1-Eya2 inh	CtBP-E1A inh
1	COc1ccc(/C=N/OCC(=O)NC(c2ccccc2)c2ccccc2)cc1OC	-2	3.8	-3%	14%	1	-15
2	O=C(O)c1cc2n(n1)CCN(Cc1ccccc1Cl)C2=O	-5	6.0	19%	-3%[15.4 µM]	-1	x
3	O=C(O)c1ccc2c(c1)C(=O)N(CCCCCCCN1C(=O)c3ccc(C(=O)O)cc3C1=O)C2=O	-5	-2.8	10%	21%	-4	-2
4	CC(OC(=O)CCc1nc2ccccc2c(=O)[nH]1)C(=O)NC1CCCC1 (stereo not given)	-21	-1.5	8%	-4%	13	5
5	C#Cc1ccc([C@@H]2C=C(C(=O)N3CCN(Cc4ccccc4)CC3)O[C@H](OCC)[C@H]2CCCO)cc1	-7	2.0	-12%	6%	-9	-1
6	O=C(/C=C/c1ccccc1Cl)c1ccc[nH]1	-19	-0.8	0%	-65%[inhibitor]	3	-3
7	COc1ccccc1NC(=O)c1cc2n(n1)C(C(F)(F)F)CC(c1ccc3c(c1)OCO3)N2 (stereo not given)	2	-4.5	-6%	20%	4	18
8	CCn1c(SCC(=O)c2ccc3c(c2)OCCO3)nnc1C(C)C	-11	-0.8	4%	15%	3	-1
9	O=c1[nH]c2ccccc2n1C1CCCCC1	-19	-4.8	10%	1%	8	1
10	O=C(Nc1cccc2cccnc12)c1ccc(Cl)cc1Cl	2	-2.6	-21%	-3%	13	8
11	CCOC(=O)C1(C)CCCN(C(=O)CCc2ccccc2)C1 (stereo not given)	-5	1.4	x	x	14	-7
12	O=c1[nH]c2cc([N+](=O)[O-])cc(Cl)c2c2ccccc12	-3	5.1	x	21%	-14	-10
13	COc1nc(OCCNC(C)=O)nc(N(C)C)n1	-3	-4.2	2%	12%	0	1
14	CCn1ccnc1CN(C)Cc1c(C(=O)N2CCCCCCC2)nc2ccc(Cl)cn12	-9	0.6	9%	-49%[inhibitor]	-8	-2
15	Cn1c(-c2c(N)n(CCCc3ccccc3)c3nc4ccccc4nc23)nc2ccccc21	-14	4.5	-7%	u	25	37
16	CC(C)(C)c1ccc(C(=O)NNc2ccc(F)cc2F)cc1	4	3.0	8%	-3%[15.4 µM]	-8	-1
17	COc1cc(C(C#N)N2CCC(c3ccccc3)=N2)ccc1O (stereo not given)	-3	0.6	6%	-5%[15.4 µM]	4	1
18	COCCNCC(=O)N1c2ccccc2Sc2ccccc21	-14	-0.4	12%	-1%[15.4 µM]	-14	-8
19	O=C(CP(=O)(c1ccccc1)c1ccccc1)Nc1cccc(CP(=O)(c2ccccc2)c2ccccc2)c1	-1	-6.4	-25%	2%[15.4 µM]	-12	-8
20	Cc1ccccc1NC1=C(C(=O)c2ccccc2)N(C)S(=O)(=O)c2ccccc21	-20	-1.8	-1%	-13%	u	-29
21	O=C1c2cccnc2C(O)N1C1CCCCC1 (stereo not given)	-3	-1.8	10%	5%	34	42
22	CN(C)CCC(O)(c1ccccc1)c1ccccc1Cl (stereo not given)	-8	-0.1	7%	-26%	4	6
23	CCN(C[C@H]1N[C@@](Cc2ccccc2)(C(=O)OC)[C@H]2C(=O)N(C)C(=O)[C@@H]12)C(=O)COc1ccccc1	-6	-1.7	-4%	x	-1	7
24	O=C(Nc1ccccc1Cl)OCc1cncs1	-9	-11	13%	4%	4	10
25	COc1cccc(N2C(=O)C3CCCN3C2c2ccc(N(C)C)cc2)c1 (stereo not given)	-2	-5.0	-3%	0%	0	4
26	CCN(c1ccccc1)S(=O)(=O)c1c[nH]c2ccc([N+](=O)[O-])cc12	-3	-0.4	u	-49%[inhibitor]	-7	-7
27	O=C(COC(=O)CSc1ccccc1)NC1CCS(=O)(=O)C1 (stereo not given)	-3	-2.1	x	-31%	10	-11
28	CCS(=O)(=O)N1CCCC(C(=O)NCCc2ccc(C)cc2)C1 (stereo not given)	-14	-2.8	2%	-7%	5	8
29	CC(=O)N1CCN=C1SCc1cccc(Cl)c1	-7	-6.4	4%	2%	14	x
30	O=c1c2c(nc3n1CCS3)c1cc(F)ccc1n2Cc1cc(=O)n2cc(Cl)ccc2n1	-2	1.9	-20%	u	1	1
31	O=C(CSc1nnc(-c2ccccc2)c(-c2ccccc2)n1)Nc1ccc(Br)cn1	-11	-1.2	-14%	-1%	-22	-13
32	CC(C)n1c(=N)c(C(=O)NCCc2ccccc2)cc2c(=O)n3ccccc3nc21	-14	-2.8	17%	0%	2	0
33	O=C(Nc1ccnn1C1CCN(Cc2c[nH]c3ccccc23)CC1)c1ccccc1	-30	2.7	18%	22%	-3	-2
34	CCOc1ccccc1C(=O)NCC(=O)NCC(c1ccco1)N1CCCCC1 (stereo not given)	-17	1.6	7%	-11%[15.4 µM]	4	-8
35	CC(C)CC(=O)Nc1ccccc1N1CCN(C(=O)c2ccccc2)CC1	62*	3.5	-11%	3%	4	2
36	CCN(CC)S(=O)(=O)c1ccc(C(=O)NCc2ccc(C)cc2)cc1	-1	0.6	5%	-20%	7	9
37	CNC(=O)c1cccnc1Nc1cccc(C(F)(F)F)c1	-4	-1.7	-20%	-38%	3	x
38	COc1ccc2[nH]cc(CCNC(=O)C3CCCCC3)c2c1	-8	-2.1	5%	-7%	-3	-23
39	CCOC(=O)C1=C(C)NC(=O)NC1c1cn(-c2ccccc2)nc1-c1cccs1 (stereo not given)	0	0.1	-7%	-17%	0	-6
40	CCCCCCSc1cccc(-c2nc3ccc(C)cn3c2NCc2ccccc2)c1	-10	-1.5	7%	u	8	x
41	Cc1cccc(CN2C(=O)CSc3ccc(C(=O)NC4CC4)cc32)c1	1	3.9	-27%	24%	9	3
42	Cc1ccc(SCC(=O)NC2CC3CCC(C2)N3C)cc1 (stereo not given)	-6	2.2	4%	-16%[15.4 µM]	6	2
43	O=C(c1cc2cc([N+](=O)[O-])ccc2oc1=O)N1CCN(c2ncccn2)CC1	-8	-0.9	-1%	1%	0	7
44	Cc1cc(NC(=O)CSc2nccn2-c2cccc(Cl)c2)no1	-7	1.5	4%	-6%	0	-6
45	O=C(O)COc1ccccc1/C=N/Nc1ccc(S(=O)(=O)Nc2ccc(Cl)cc2)cc1[N+](=O)[O-]	-17	-1.3	-21%	-69%[inhibitor]	-26	-4
46	CCC(=O)NCCCNc1nc2c(C)cccc2cc1C#N	-25	0.5	x	6%[15.4 µM]	10	24
47	CCCC(=O)Nc1ccc(C(=O)NNC(=S)NC(=O)c2cccs2)cc1	-17	-2.0	-9%	-38%[inhibitor]	-5	-6
48	CCc1ccc(Nc2ccc(S(=O)(=O)N3CCOCC3)cc2[N+](=O)[O-])cc1	9	1.4	-4%	-25%	u	u
49	COc1cccc(NC(=O)CCc2nc(-c3cccs3)no2)c1	-3	-1.9	-2%	27%	-2	0
50	Cc1ccc(S(=O)(=O)n2c([N+](=O)[O-])cnc2C)c(C)c1C	3	1.2	u	24%	2	0
51	CCc1ccc(Nc2ncc3c(n2)CC(c2ccc(OC)cc2)CC3=O)cc1 (stereo not given)	-7	-0.1	4%	45%	8	-1
52	O=C(O)CCNC(=O)/C(=C/C=C/c1ccccc1)NC(=O)c1ccccc1	-4	-0.5	17%	3%	3	x
53	CCOC(=O)C(C)S(=O)(=O)c1ccc(C(F)(F)F)cn1 (stereo not given)	-20	0.8	-7%	-4%	1	-2
54	O=c1[nH]c(O)c(/C=C2\C=Nc3ccc(Br)cc32)[nH]1	-2	-2.9	8%	23%	-11	-7
55	CCOC(=O)c1ccc(NNC(C)=O)c([N+](=O)[O-])c1	-5	-3.6	12%	-49%[inhibitor]	4	0
56	N#CC1C(=O)NC(=O)C(C#N)C12CCCc1sccc12 (stereo not given)	-5	3.0	x	-33%[inhibitor]	-2	3

Record cards (already shown). Screens in order: D2 PAM, D2 ag, gsp antagonist, gsp agonist, Six1-Eya2 inh, CtBP-E1A inh
Profile of COc1cccc(NC(=O)CCc2nc(-c3cccs3)no2)c1 : -3, -1.9, -2%, 27%, -2, 0
Profile of O=c1[nH]c(O)c(/C=C2\C=Nc3ccc(Br)cc32)[nH]1 : -2, -2.9, 8%, 23%, -11, -7
Profile of CCOC(=O)c1ccc(NNC(C)=O)c([N+](=O)[O-])c1 : -5, -3.6, 12%, -49%[inhibitor], 4, 0

Next part:
entry	canonical_smiles	D2 PAM	D2 ag	gsp antagonist	gsp agonist	Six1-Eya2 inh	CtBP-E1A inh
57	CSCCC(NS(=O)(=O)c1ccc(C)cc1)C(=O)NCCc1c[nH]c2ccccc12 (stereo not given)	-12	-12	-12%	-8%	-6	-8
58	CC1(C)NC(C(=O)O)Cc2c1[nH]c1ccccc21 (stereo not given)	-7	7.3	4%	27%[15.4 µM]	1	x
59	C[C@H]1CN([C@@H](C)CO)C(=O)c2cccc(NC(=O)C3CC3)c2O[C@H]1CN(C)S(=O)(=O)c1ccccc1	2	-1.1	-1%	x	1	5
60	CN(C)c1nc(N)c(C(=O)N=C(N)N)nc1Cl	-9	3.3	5%	x	-2	-15
61	Cc1nn2c(-c3ccncc3)nnc2c2ccccc12	-2	-1.7	12%	u	-15	-9
62	CCCCC(=O)Nc1ccc(C(=O)NNC(=O)c2ccccc2Br)cc1	3	2.1	1%	10%	-6	-6
63	O=C(CNC(=O)N1CC(=O)Nc2ccccc21)Nc1ccc(Br)cc1F	-14	-0.4	x	-46%[inhibitor]	5	3
64	O=C(Cc1ccccc1Cl)NNC(=O)Nc1ccccc1	14	-2.3	20%	23%	-6	-3
65	CC(C)Cc1nnc(NC(=O)CCC(=O)N2CCN(c3ccc(Cl)cc3)CC2)s1	-9	0.8	-3%	u	1	5
66	CC(Nc1cc(N2CCOCC2)ccc1[N+](=O)[O-])c1ccccc1 (stereo not given)	-17	-0.8	5%	-11%	-6	-5
67	Cc1c(NC(=O)c2nn3c(c2Br)NC(c2ccccc2)CC3C(F)(F)F)c(=O)n(-c2ccccc2)n1C (stereo not given)	-10	1.3	9%	-39%	5	-3
68	COc1ccc(-c2cc(C3CCN(c4ncccc4[N+](=O)[O-])CC3)[nH]n2)cc1	11	-4.2	-16%	-21%	u	-22
69	CSc1nc(-c2ccco2)cc(-c2ccccc2)c1C#N	19	-1.9	u	u	28	16
70	Cn1nnnc1SC(C(=O)Nc1ccc(F)cc1)c1ccccc1 (stereo not given)	-9	-4.4	-7%	2%[15.4 µM]	17	7
71	CC12CC3CC(C)(C1)CC(C(O)CN1CCOCC1)(C3)C2 (stereo not given)	-4	-3.1	12%	7%	5	1
72	CNc1cncc(-c2cccc(C(=O)NC3CC3)c2)n1	-5	-3.8	x	x	-17	-17
73	Cc1ccc(OC(=O)N2CCOCC2)cc1	2	-4.1	6%	-1%	8	0
74	O=C(C1CCCN(Cc2ccc([N+](=O)[O-])cc2)C1)N1CCCCC1 (stereo not given)	-4	-6.3	9%	11%	-7	x
